# GIRK2 activ = opens human GIRK2 potassium channels; HEK293-GIRK2 thallium flux, Thallos fluorescence; calls only for hits at 25 µM; hit rate 0.05% among 63,000; P48051;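 active = among the strongest 0.2% of first-round signals and kept after retests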;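 note: first round at about 10 µM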
# Target sequence (P48051 whole entry, looked up): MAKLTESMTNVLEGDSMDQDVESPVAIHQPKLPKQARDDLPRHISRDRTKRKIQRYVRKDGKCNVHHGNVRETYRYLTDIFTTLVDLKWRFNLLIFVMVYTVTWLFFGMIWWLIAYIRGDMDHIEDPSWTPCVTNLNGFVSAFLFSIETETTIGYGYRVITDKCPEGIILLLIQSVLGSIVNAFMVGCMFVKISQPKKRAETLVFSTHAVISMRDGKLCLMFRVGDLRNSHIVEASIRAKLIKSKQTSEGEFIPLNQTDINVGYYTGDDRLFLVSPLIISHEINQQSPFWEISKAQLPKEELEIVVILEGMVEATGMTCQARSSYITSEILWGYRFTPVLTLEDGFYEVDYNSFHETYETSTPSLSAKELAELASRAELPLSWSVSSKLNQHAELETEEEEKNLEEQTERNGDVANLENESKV
# Calls only; i = inactive. An excerpt, so the mix of outcomes need not match the whole.
Compound | GIRK2 activ
COc1ccc(S(=O)(=O)NCC(c2cccnc2)N2CCN(c3ccccc3F)CC2)cc1C (centres undefined) | i
CC(C)C(=O)Nc1cc(C2CC2)nn1-c1nc(-c2ccccc2)cc(=O)[nH]1 | i
COc1ccc(F)cc1S(=O)(=O)NCC(C)(O)CSC (centres undefined) | i
C=CCN1CC(c2nc3ccccc3n2Cc2ccc(C(C)(C)C)cc2)CC1=O (centres undefined) | i
CCOc1ccccc1Oc1coc2cc(OS(C)(=O)=O)ccc2c1=O | i
Cc1ccc(NC(=O)CSc2nnc(C3CC(=O)N(c4ccc(C)cc4)C3)o2)cc1 (centres undefined) | i
O=C(CN1C(=O)CCC1=O)N1CCCC(c2nnc(-c3ccccc3F)s2)C1 (centres undefined) | i
CC(=O)Nc1ccc(S(=O)(=O)Nc2ccc3c(c2)CCC(=O)N3Cc2ccccc2)cc1 | i
O=c1n(Cc2nc(-c3ccccc3)no2)nc2ccc(-c3ccccc3)nn12 | i
O=C(O)CCC/C=C\C[C@@H]1[C@@H](/C=C/[C@@H](O)COc2cccc(Cl)c2)[C@H](O)C[C@@H]1O | i
Cn1cc(C(=O)NCC(Cc2cccc(F)c2)N2CCCC2=O)nn1 (centres undefined) | i
COc1ccc(N2CCCS2(=O)=O)cc1NC(=O)C(=O)NCc1ccccc1 | i
CCCS(=O)(=O)Nc1cnc(N2CCOCC2)nc1 | i
O=C(NCc1ccccn1)c1nnn(-c2ccccc2Cl)c1-c1cccnc1 | i
CN(C)CC1COCCN1C(=O)c1ccc(F)c(F)c1 (centres undefined) | i
S=c1[nH]nc(-c2ccccc2)o1 | i
CCc1nc2sc(C(c3cccc(F)c3)N3CCN(C(C)=O)CC3)c(O)n2n1 (centres undefined) | i
COc1ccc2nc(N3CCN(C(=O)NC(C)(C)C)CC3)sc2c1 | i
COC(=O)c1ccccc1NC(=O)CC1Nc2cc(C)c(C)cc2NC1=O (centres undefined) | i
CN(C)C(CNC(=O)NCc1ccc(F)cc1)c1ccc2c(c1)CCO2 (centres undefined) | i
COc1cc(OC)cc(C(=O)Nc2ccc3nc(C)n(-c4ccc(F)cc4)c(=O)c3c2)c1 | i
COCCn1nnn(-c2ccc(NC(=O)c3ccccc3)cc2)c1=O | i
Cc1ccc(NC(=O)CSc2nc3ccccc3[nH]2)c(Br)c1 | i
COc1ccccc1C(=O)N1c2ccccc2NC(=O)CC1C (centres undefined) | i
Cn1c(SCC(=O)O)nc2c1c(=O)n(Cc1ccccc1)c(=O)n2C | i
O=C1/C(=C/c2cccs2)Oc2c1ccc1c2CN(Cc2cccs2)CO1 | i
NS(=O)(=O)c1ccc(NC(=O)CCn2c(=O)oc3ccc(Cl)cc32)cc1 | i
O=C(CN1CC(c2nc(Cc3ccccc3)no2)C1)Nc1ccc2c(c1)OCO2 | i
Cc1cc(=O)n2c(-c3ccc(NS(=O)(=O)c4ccc(Cl)s4)cc3)csc2n1 | i
COc1ccc(C2SCCN2S(C)(=O)=O)cc1Br (centres undefined) | i
COc1ccc(OCc2noc(CNC(=O)c3ccccc3Cl)n2)cc1 | i
COc1cc(C(=O)N(CCN2CCOCC2)c2nc3c(F)cc(F)cc3s2)cc(OC)c1OC | i
O=C(CN1C(=O)CCC1=O)Nc1nnc(-c2ccc3c(c2)CCCC3)o1 | i
CSc1nnc(NC(=O)c2cc(-c3ccccc3)on2)s1 | i
O=c1n(Cc2cccc(Br)c2)nc2ccc(-c3ccccc3)nn12 | i
Cc1nc(C)c(-c2nnc(NC(=O)Nc3ccccc3Cl)o2)s1 | i
O=C(Nc1ccc2cn[nH]c2c1)c1cc2n(n1)CCCO2 | i
O=C(COc1ccccc1Cl)Nc1cc(-n2ccc3ccccc32)ncn1 | i
COc1ccc(N2C(=O)/C(=C/c3ccncc3)SC2=S)c(OC)c1 | i
O=C(Nc1cnc(N2CCOCC2)nc1)C1CCCC1 | i
COc1ccccc1NC(=O)CN1N=NC2C(=O)N(c3ccc(F)c(F)c3)C(=O)C21 (centres undefined) | i
Cn1c(=O)[nH]c(=O)c2c1nc(N1CCOCC1)n2CCN1CCOCC1 | i
COc1ccc(Cl)cc1NC(=O)Cn1nc2c(Oc3ccc(C)cc3)nccn2c1=O | i
COc1cc(OC)cc(C(=O)Nc2ccc3c(c2)CCCN3C(C)=O)c1 | i
COc1ccc(CCNC(=O)N2CCN(Cc3nc4ccccc4[nH]3)CC2)cc1 | i
CCc1ccc(NCCCn2c(C)cn3c4c(=O)[nH]c(=O)n(C)c4nc23)cc1 | i
COC(=O)C1CCN(c2c(C)cnc3c2c(=O)n(C)c(=O)n3C)CC1 | i
COc1cc(NC(=O)Cn2cnc3ccccc3c2=O)ncn1 | i
C=CCn1c(=O)c2c(nc3n2CCCN3c2cc(C)ccc2OC)n(C)c1=O | i
Cn1c(=O)c2c(nc(Br)n2C/C=C/c2ccccc2)n(C)c1=O | i
CC(C)(C)NC(=O)N1CCN(CC(O)c2ccco2)CC1 (centres undefined) | i
CC(O)(CNS(=O)(=O)c1ccccc1Cl)c1ccco1 (centres undefined) | i
COc1cccc(N2CCN(S(=O)(=O)c3ccsc3C(=O)NCc3ccc(C)cc3)CC2)c1 | i
Cc1cc(N2CCN(C3CCCCC3)CC2)n2nc(C(F)(F)F)nc2n1 | i
Cc1nc(-c2cccs2)sc1CNC(=O)Cn1cnc2ccccc2c1=O | i
Cc1nc(C)c(-c2nnc(NC(=O)c3cc(=O)c4ccccc4o3)o2)s1 | i

# Next part:
Compound | GIRK2 activ
CN(C)c1ccc(/C=C2\SC(=S)N(c3ccc(O)cc3)C2=O)cc1 | i
O=C(Cn1nc2c(Sc3cccc(F)c3)nccn2c1=O)N1CCN(c2ccccc2)CC1 | i
COc1cc(/C=C/C(=O)OCC[N+](C)(C)C)cc(OC)c1O | i
Cc1csc(C(=O)N2CCN(Cc3c(C)noc3C)CC2)c1 | i
COc1ccc(-n2nnc(C(=O)N(CCO)C3CCCCC3)n2)cc1 | i
COc1cccc(Cn2c(SCc3nc(-c4ccc(F)cc4)no3)nc3ccsc3c2=O)c1 | i
Cc1ccc(S(=O)(=O)c2c(C)nn(C(C)(C)C)c2OC(=O)c2ccccc2C)cc1 | i
O=C(CSc1ccc(-c2nc(-c3ccccc3)no2)cn1)NCc1ccccc1 | i
COc1ccccc1CCNC(=O)c1csc2nc(-c3ccc(F)cc3)cn12 | i
O=C(Nc1cccs1)N1CCC(c2nnc(-c3ccco3)s2)CC1 | i
Nc1ccc2c(c1)C(NCCc1ccc(Oc3ccccc3)cc1)=NCN2 | i
COc1ccccc1NC(=O)c1nnn(-c2ccc(C)c(Cl)c2)c1C | i
CCS(=O)(=O)c1ccc(-c2nnc(NC(=O)c3cn(C)nc3OC)o2)cc1 | i
COc1cc(C(=O)NC23CC4CC(CC(C4)C2)C3)on1 | i
COC(=O)c1cc(-c2ccc(C)cc2)n(-c2ccc(S(C)(=O)=O)cc2)n1 | i
CSc1ccccc1C(=O)Nc1cc2c3c(c1)CCN3C(=O)CC2 | i
COc1cc(C)c(Br)cc1S(=O)(=O)NCc1ccccn1 | i
Cc1nn(C)cc1S(=O)(=O)N1CCN(c2cccc(Cl)c2)CC1 | i
CC(C)(Oc1ccc(Cl)cc1)C(=O)Nc1ccc(CC(=O)NCc2cccs2)cc1 | i
COc1ccc2[nH]c3c(SCC(=O)Nc4ccc(Cl)cc4)ncnc3c2c1 | i
O=C(CCn1nnc2ccccc2c1=O)N1CCn2c1nc1ccccc12 | i
Cn1nc(-c2cccs2)cc1C(=O)NCCn1nc(C2CC2)n(-c2ccccc2)c1=O | i
CCCOc1ccc(CNC(=O)CCn2cnc3c([nH]c4ccccc43)c2=O)cc1 | i
COc1ccc(Nc2ccnc3ccc(F)cc23)cc1OC | i

# Reprinted from the entries so far for reference:
Compound | GIRK2 activ
COc1ccc(S(=O)(=O)NCC(c2cccnc2)N2CCN(c3ccccc3F)CC2)cc1C (centres undefined) | i
CC(C)C(=O)Nc1cc(C2CC2)nn1-c1nc(-c2ccccc2)cc(=O)[nH]1 | i
COc1ccc(F)cc1S(=O)(=O)NCC(C)(O)CSC (centres undefined) | i
C=CCN1CC(c2nc3ccccc3n2Cc2ccc(C(C)(C)C)cc2)CC1=O (centres undefined) | i
CCOc1ccccc1Oc1coc2cc(OS(C)(=O)=O)ccc2c1=O | i
Cc1ccc(NC(=O)CSc2nnc(C3CC(=O)N(c4ccc(C)cc4)C3)o2)cc1 (centres undefined) | i

# (more compounds)
Compound | GIRK2 activ
O=C(CC1=C/C(=C\c2ccc(SC(F)(F)F)cc2)c2ccc(F)cc21)NCc1ccccc1 | i
O=C(CSCc1ccccc1)NCc1ccsc1 | i
CCCNC(=O)Cn1nc2c(c1NC(=O)C(C)(C)Oc1ccc(Cl)cc1)CSC2 | i
COc1ccc(-c2c(C)oc3cc(OCCN4CCC(C(N)=O)CC4)ccc3c2=O)cc1 | i
O=C(/C=C/c1cccs1)NCC#CCOc1ccc2c(c1)OCO2 | i
COCCNC(=O)N1CC(c2nc(-c3cccnc3)no2)C1 | i
O=C(NCCO)C1=Cc2cc(Br)ccc2OC=C1 | i
CCCn1c(=O)c2sccc2n2c(CCCC(=O)Nc3cc(C)cc(C)c3)nnc12 | i
COc1ccc(S(=O)(=O)NCCn2cncn2)cc1OC | i
Cc1ccc(C)c2sc(N(C)CC(=O)NCCn3nc(-c4ccco4)ccc3=O)nc12 | i
O=S(=O)(c1ccc2ccccc2c1)N1CCN(c2cc(N3CCOCC3)ncn2)CC1 | i
CC1CN(C=O)c2ccccc2N(Cc2cccc3ccccc23)C1=O (centres undefined) | i
CCCCN(C)C(=O)c1cc2c(=O)n3ccccc3nc2n1CCCOC | i
COC(=O)Cn1c(=O)c2c(nc3n2CCN3c2ccc(C)c(Cl)c2)n(C)c1=O | i
CCOc1ccc(C(=O)NCCNc2ccc(Nc3cccnc3)nn2)cc1 | i
COc1ccc(S(=O)(=O)NCC(c2ccsc2)N2CCN(C)CC2)cc1OC (centres undefined) | i

# Some of the entries above in a different format.
O=c1n(Cc2nc(-c3ccccc3)no2)nc2ccc(-c3ccccc3)nn12
  GIRK2 activ = i

O=C(O)CCC/C=C\C[C@@H]1[C@@H](/C=C/[C@@H](O)COc2cccc(Cl)c2)[C@H](O)C[C@@H]1O
  GIRK2 activ = i

# Continued:
Compound | GIRK2 activ
CC(=O)C(C)n1c(Br)nc2c1c(=O)n(Cc1ccc(F)cc1)c(=O)n2C (centres undefined) | i
CCS(=O)(=O)N1CCCc2cc(NC(=O)c3cccn(C)c3=O)ccc21 | i
COc1cccc(-c2nc(Cn3c(=O)n(C(C)C)c(=O)c4ccccc43)c(C)o2)c1OC | i
Cc1cc(=O)n(CC(=O)Nc2ccc3c(c2)OCO3)c(N2CCCCC2)n1 | i
CN1CCN(c2cc(OCCNC(=O)COc3ccc4c(c3)OCO4)ncn2)CC1 | i
Nc1ncn([C@H]2C[C@H](O)[C@@H](CO)O2)c(=O)n1 | i
O=C(NCCc1ncc(-c2ccco2)[nH]1)c1ccno1 | i
COCCCNC(=O)CSc1nc(-c2ccccc2)[nH]c1-c1ccc(OC)cc1 | i
Cc1csc(SCC2CCN(S(=O)(=O)c3ccccc3)CC2)n1 | i
COc1cccc(Oc2c(C)oc3cc(OCC#N)ccc3c2=O)c1 | i
OCC(O)Cn1c(Cc2ccccc2)nc2ccccc21 (centres undefined) | i
Cc1nc(-n2cccc2)sc1C(=O)NCCn1ncccc1=O | i
O=C(NCC1CCS(=O)(=O)C1)c1cc(-c2ccco2)on1 (centres undefined) | i
N#Cc1nc(/C=C/c2cccs2)oc1N1CCN(C(=O)c2cccs2)CC1 | i
O=C(NCCC1=CCCCC1)C1CCCN(Cc2nc(-c3ccncc3)no2)C1 (centres undefined) | i
CC(=O)c1cccc(NC(=O)CSc2nnc3ccc(C(=O)Nc4cccc(F)c4)cn23)c1 | i
O=C(c1cccc(NS(=O)(=O)c2cccc(F)c2)c1)N1CCN(c2ccccc2)CC1 | i
Cc1ccc(NC(=O)c2c(F)cccc2Cl)cc1N1CCCC1=O | i
CC1CCN(CCCNC(=O)CCCc2nnc3c(=O)n(-c4ccc(Cl)cc4)ccn23)CC1 | i
Cc1cc(C(=O)N2CCCC(c3nnc(-c4cccs4)o3)C2)no1 (centres undefined) | i
CCOC(=O)c1sc(NC(=O)CSc2nc(N)c3c(C)c(C(=O)O)sc3n2)nc1C | i
CCOC(=O)c1cnn2ccc(NC(=O)/C=C/c3ccc(OC)c(OC)c3)cc12 | i
COc1ccc(/C(C#N)=C/c2ccc3noc(-c4ccccc4)c3c2)cc1OC | i
Cn1c(=O)c2cc(C(=O)NCCC3=CCCCC3)n(Cc3ccccc3)c2n(C)c1=O | i
O=C(Nc1nc2c(s1)CN(S(=O)(=O)C1CC1)CC2)c1c(F)cccc1F | i
Cc1ccccc1NC(=O)CN1N=NC2C(=O)N(c3ccc(F)cc3)C(=O)C21 (centres undefined) | i
O=C(Cc1cccs1)Nc1nc(C(=O)N2CCN(C(=O)c3ccco3)CC2)co1 | i
O=S(=O)(NCc1ccccn1)c1ccc(Oc2ccccc2Cl)cc1 | i
Cc1nnsc1C(=O)Nc1ccc(Nc2cc(-n3cccn3)ncn2)cc1 | i
Cc1noc(C)c1CN1CCN(C(=O)c2ccc(=O)oc2)CC1 | i
Cc1cc(-n2nnc(C(=O)N3CCSCC3)c2C)ccc1F | i
CC(C)(C)C1CCc2c(sc3nc(CCC(=O)N4CCC(C(N)=O)CC4)[nH]c(=O)c23)C1 (centres undefined) | i
COc1cccc2sc(N3CCN(C(=O)c4cc(C)n(C)n4)CC3)nc12 | i
O=C1N(c2ccccc2)C2CS(=O)(=O)CC2N1c1cccc(Br)c1 (centres undefined) | i
CC(=O)c1cccc(S(=O)(=O)N(CC(F)(F)F)C2CCOCC2)c1 | i
CCSc1ccccc1NC(=O)C1COc2ccccc2O1 (centres undefined) | i
COc1cccc(C(=O)NCC(O)C2CCCCC2)c1 (centres undefined) | i
COc1ccc2sc(OC3CCN(C(=O)c4cncc(Br)c4)CC3)nc2c1 | i
Cc1cc(CCNC(=O)c2cc(-c3ccco3)[nH]n2)on1 | i
COC(=O)C1=C(C)Nc2nc(SC)nn2C1c1ccc(OC(F)F)cc1 (centres undefined) | i

# Assay outcomes as filed in PubChem BioAssay.
